PINK1 expr mod: PINK1 expression modulation; PINK1 immunofluorescence, high-content cytometry, 24 h; Potency, µM (top dose mostly 76.6 µM), for inactives: at the top dose activation (PINK1 increase), hits mostly activators; 410,000 tested, 0.2% active; AID 624263; active = well fitted activation curve with a large enough effect; inconclusive = small, poorly fitted or top-dose-only effect; inactive = flat fitted curve, though single readings scatter; cell line not stated here;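 further: potency means the concentration at half of the fitted maximal effect; % of control where 0% means no effect; nearly all actives have a fitted effect of over 65% in size; a mitochondrial uncoupler was the plate control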
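Cells are seeded, rested 12 hours, then given compound at five concentrations or DMSO for 24 hours. After fixation, blocking and antibody staining, PINK1 amount and mitochondrial localization are scored; CCCP serves as control.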
TRPML1 agonist: activates the human TRPML1 channel; activation, % (no concentration beside the values); AID 624414; Q9GZU1; 410,000 tested, 0.12% active; TRPML1-expressing cells, Ca2+ dye fluorescence, FDSS; host cell line not named in the record; reference of the full effect not given here; in the data active = activation above about 50%; inconclusive = about 30% to 50%; inactive = below about 30%; further: 0% is about no effect; the text of the record puts the active cut at 80%
Target sequence (Q9GZU1 whole entry, looked up): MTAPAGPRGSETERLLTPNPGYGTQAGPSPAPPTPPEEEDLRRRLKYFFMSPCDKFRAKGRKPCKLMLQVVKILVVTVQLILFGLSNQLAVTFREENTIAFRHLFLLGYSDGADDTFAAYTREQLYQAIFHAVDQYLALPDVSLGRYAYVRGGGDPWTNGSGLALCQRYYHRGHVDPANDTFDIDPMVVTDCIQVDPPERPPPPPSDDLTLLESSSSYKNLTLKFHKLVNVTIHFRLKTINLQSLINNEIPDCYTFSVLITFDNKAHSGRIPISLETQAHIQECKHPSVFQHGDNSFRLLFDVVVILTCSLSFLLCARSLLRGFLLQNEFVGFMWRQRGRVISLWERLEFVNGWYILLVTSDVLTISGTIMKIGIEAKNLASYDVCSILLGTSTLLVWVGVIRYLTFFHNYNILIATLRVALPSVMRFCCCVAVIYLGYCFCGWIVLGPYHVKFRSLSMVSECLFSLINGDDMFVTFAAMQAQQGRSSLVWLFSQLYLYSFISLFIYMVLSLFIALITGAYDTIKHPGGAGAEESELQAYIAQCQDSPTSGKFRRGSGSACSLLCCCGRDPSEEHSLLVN
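Tet-induced TRPML1-DL cells, 1,500 per well, cultured overnight, were loaded with a no-wash Ca2+ dye for 45–90 min. Calcium fluorescence was recorded on the FDSS for 110 s after compound addition, before the EC80 agonist (4 uM 54-4) was added.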
D2 potentiator: potentiates the human D2 dopamine receptor allosterically | P14416 | DiscoveRx D2 beta-arrestin cells, luminescence, 90 min; 100% = 57 uM dopamine signal | potentiation, % (no concentration beside the values) | 360,000 tested, 0.23% active; active = potentiation of 50% or more; inconclusive = 30% to 50%; inactive = 30% or less;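 further: compound concentration not given in the record; tested on top of an EC20 dose of dopamine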
Target sequence (P14416 whole entry, looked up): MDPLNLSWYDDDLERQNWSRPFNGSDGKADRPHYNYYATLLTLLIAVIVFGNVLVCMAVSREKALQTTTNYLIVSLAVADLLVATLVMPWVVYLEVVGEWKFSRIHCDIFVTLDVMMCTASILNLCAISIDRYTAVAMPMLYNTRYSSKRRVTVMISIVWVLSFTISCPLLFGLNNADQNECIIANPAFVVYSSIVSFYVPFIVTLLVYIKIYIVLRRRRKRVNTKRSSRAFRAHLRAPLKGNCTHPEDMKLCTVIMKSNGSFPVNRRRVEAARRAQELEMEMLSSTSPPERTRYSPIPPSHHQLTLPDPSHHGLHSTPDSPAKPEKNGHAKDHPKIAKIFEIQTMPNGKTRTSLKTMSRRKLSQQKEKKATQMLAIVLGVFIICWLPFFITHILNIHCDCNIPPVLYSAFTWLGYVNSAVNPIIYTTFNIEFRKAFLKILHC
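D2 cells co-treated with compound plus 50 nM dopamine (EC20) for 90 min at 37 deg C to detect potentiation. Beta-arrestin recruitment was read as enzyme-fragment luminescence after 1 h at ambient temperature. Full response was set by 57 uM dopamine.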
D2 agonist: activates the human D2 dopamine receptor. P14416. DiscoveRx PathHunter D2 beta-arrestin, luminescence, 90 min; 100% = 57 uM dopamine signal. activation, % (test concentration not listed). 360,000 tested, 0.084% active; in the data active = activation above about 40%; inconclusive = about 15% to 40%; inactive = below about 15%; further: compound concentration not given in the record; the text of the record calls up to 30% inactive
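DiscoveRx PathHunter D2 beta-arrestin cells (2,100/well) attached overnight, then compound-stimulated 90 min at 37 C in HBSS/10 mM HEPES/0.1% Tween-20 buffer; beta-galactosidase complementation read by luminescence after 1 h at ambient temperature. Dopamine 57 uM final (EC100) as control.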
Six1-Eya2 blk: blocks human Six1 binding to Eya2 | Q15475+O00167 | AlphaScreen GST-Six1/His-Eya2 binding, biochemical; hits give low values; control for the full effect not named in the record | activity change, % (test concentration not listed) | 360,000 tested, 0.56% active; in the data active = activity change below about -65%; inconclusive = about -30% to -65%; inactive = above about -30%; further: on the % scale 0 is the no-effect control and ±100 the full control effect; compound concentration not given in the record
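Compounds are tested against tagged Six1 and Eya2 proteins bridged by glutathione donor and nickel acceptor beads; after a one-hour incubation at 37 °C without light, AlphaScreen emission is recorded.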
CtBP-E1A blk: blocks the CtBP interaction with E1A | AlphaScreen GST-E1A/His-CtBP binding, 1536-well; hits give low values; control for the full effect not named in the record | activity change, % (no concentration beside the values) | 340,000 tested, 0.49% active; in the data active means activity change below about -65%; inconclusive means about -30% to -65%; inactive means above about -30%; further: on the % scale 0 is the no-effect control and ±100 the full control effect; compound concentration not given in the record
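Homogeneous bead-based format: GST-tagged E1A captured on glutathione donor beads, His-tagged CtBP on nickel acceptor beads; compounds precede bead addition by 2 h at 37 °C.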
Numbers without * were called inactive; ? = inconclusive; nt = not tested or not shown; & = joins results of further samples; [ ] = another dose, or the depositor's remark.

Below each SMILES: D2 potentiator, CtBP-E1A blk, D2 agonist, Six1-Eya2 blk, TRPML1 agonist, PINK1 expr mod
> COc1ccc(N2C(=O)CC(Cc3ccccc3)C2=O)cc1 (stereo not given)
    -8, 7, -2.0, 0, -0.7, -0.1%
> O=C(NCC(c1ccco1)N1CCN(c2ccccc2F)CC1)C(=O)NC1CCCCC1 (stereo not given)
    -2, -12, 6.3, 7, 1.0, 0.3%
> C[N+]1(C)CCC(=C2c3ccccc3CC(=O)c3sccc32)CC1
    -5, 4, -3.2, 2, -0.1, -0.7%[38.3 µM]
> COCCNC(=O)NC(=O)CN1CCCc2ccccc21
    -16, -1, 0.0, 2, -0.4, 3.9%
> COc1ccc(Br)cc1/C=C(\C(=O)O)c1ccc(S(=O)(=O)N2CCCC2)s1
    -2, -2, -1.1, -22, -0.5, 0.5%
> COc1ccc(C2C(=O)N(CCc3ccccc3)CC(=O)N2C2CCCC2)cc1 (stereo not given)
    -6, -5, -2.4, 0, 0.7, -2.5%[38.3 µM]
> CC(C)(C)NC(=O)CSc1nnc(-c2ccccn2)n1-c1ccccc1
    -2, -1, -1.5, 0, 2.1, 3.1%
> COc1ccccc1NS(=O)(=O)c1cccc(NS(=O)(=O)c2cc(C(=O)O)ccc2OC)c1
    -15, 3, -0.8, 6, 0.5, 2.8%
> COc1ccc(C2SCCN2S(=O)(=O)c2ccc(NC(C)=O)cc2)cc1OC (stereo not given)
    -6, 11, -1.9, -11, -0.4, 6.6%
> Cc1cc(NC(=O)CCCC(=O)N(CC(=O)NC2CCCCC2)c2ccccc2)no1
    2, 3, -1.4, 5, 0.1, -3.3%
> CC1CCC2(CC1)NC(=O)N(NC(=O)c1cccc(N(C)C)c1)C2=O (stereo not given)
    -1, -3, 1.9, -1, 1.7, 1.2%
> Cc1c(C)n(C)c2ccc(C(=O)N3CCN(c4ccccc4)CC3)cc12
    2, -29, -2.3, -26, -1.3&1.7, -1.3%&-1.4%
> COc1ccc(N2CCN(C(=O)Nc3cccc(C(F)(F)F)c3)CC2)cc1
    -11, -20, -1.0, -22, -0.7&2.5, 1.1%&-2.2%
> CC(N1CCOC1=O)S(=O)(=O)c1ccccc1 (stereo not given)
    15, 9, -1.6, 7, -0.3, -2.0%
> O=S1(=O)CCS(=O)(=O)C1c1ccccc1
    12, 5, -3.5, -21, -0.2, 10%
> CCCCC(CC)Cn1c(N)c(C#N)c2nc3ccccc3nc21 (stereo not given)
    3, 5, -3.6, 12, 1.4, nt
> CCOC(=O)C1CCN(C(=O)CNC(=O)Cn2c(C)cc3ccccc3c2=O)CC1
    -2, 0, -1.7, -4, 0.9, 1.9%
> Cc1nnc(SCC(=O)NC2CC2)s1
    -17, 0, -8.4, 3, 0.3, 1.2%
> CN(C)C(=O)CSCc1c(Cl)cccc1Cl
    0, 4, -3.3, 9, 0.6, 3.2%
> NC(=O)C1=C[C@@H](c2ccccc2)C[C@@H](OCc2ccc(CO)cc2)O1
    -5, -1, 0.5, 6, -0.2, -1.3%
> Cc1ccc(S(=O)(=O)N(CC(=O)NCc2ccccc2)C(=O)N2CCN(C)CC2)cc1
    -2, 8, -2.6, 9, -0.3, -3.0%
> Fc1cc(Cl)ccc1Nc1nc(NCc2ccccc2)nc2ccsc12
    -7, 3, -6.2, -1, 0.3, 4.7%
> CC(C)(C)n1nnnc1CN1CCSCC1
    0, -9, -1.8, 2, 0.1, 1.5%
> Cc1ccc(C)c(OCC(=O)Nc2cc(C)on2)c1
    -6, 2, -1.9, 0, -1.0, 2.6%
> Cc1ccc2[nH]c(=O)c(CN(C(=O)c3cccc([N+](=O)[O-])c3)C(C)(C)C)cc2c1
    0, -2, -4.9, -7, -0.1, 1.2%
> CC(=O)Nc1cc(NC(C)=O)cc(C(=O)OCC(=O)N(c2ccccc2)C2CCS(=O)(=O)C2)c1 (stereo not given)
    -2, nt, 1.8, -29, -0.2, 0.0%
> COc1cc(NC(=O)C2=COCCO2)c(OC)cc1Cl
    -23, 0, -6.3, 4, 0.5, 1.6%
> OC(c1ccc(-c2ccccc2)cc1)c1ncc(-c2cccc(F)c2)[nH]1 (stereo not given)
    -7, -9, -2.4, -7, 0.1, 5.0%
> CCOc1cccc(C(=O)NC(=S)Nc2ccc(Cl)cc2C(=O)O)c1
    3, 0, -3.6, -3, 0.8, 2.2%
> Cc1ccc(C(=O)NC(NC(=O)c2ccc(C)cc2)C(Cl)Cl)cc1
    -19, 0, -1.2, 3, -1.1, 14%
> O=C(Cc1ccccc1)NN1C(=O)C2C3C=CC([C@@H]2C1=O)C31CC1 (stereo not given in full)
    3, 1, 2.4, 1, 0.9, 0.2%
> Cc1ccc(OCCCCN2CCC(C)CC2)c(Br)c1
    -39, -2, -7.8, -3, -1.1, 3.8%
> O=C(CC1(O)C(=O)N(CCc2ccccc2)c2ccccc21)c1ccco1 (stereo not given)
    -12, -2, -2.9, -2, -0.7, -0.7%
> CC(O/N=C/c1ccccc1OC(F)F)C(=O)Nc1cccc(S(=O)(=O)N2CCOCC2)c1 (stereo not given)
    -17, 0, 1.0, 0, 3.4, 0.4%
> O=C(Cn1cc(C(=O)C2CC2)c2ccccc21)Nc1ccc(F)cc1
    -7, 3, 5.6, -3, -0.3, ?
> CCC(=O)c1ccc(N2CCN(C(=O)c3ccccc3Br)CC2)c(F)c1
    -2, -9, -0.7, 0, -0.2, -1.2%
> N#CCC(=O)Nc1ccc(C(=O)NNC(=O)c2ccccc2-n2cccc2)cc1
    5, nt, -2.4, 4, 0.8, -0.7%
> COc1cccc(NS(=O)(=O)c2nc3nc(C)cc(C)n3n2)c1
    -3, 5, -4.3, 3, 1.7, -2.3%
> CC(C)N1C(=O)c2ccccc2N(Cc2ccccc2)S1(=O)=O
    -20, nt, -4.9, 28, 3.4, 0.1%
> O=C(NNC(=O)c1cc2ccccc2o1)c1ccncc1
    -3, 9, 2.2, 1, 0.7, 3.4%

Random excerpt: 2 records from the list
Below each SMILES: D2 potentiator, CtBP-E1A blk, D2 agonist, Six1-Eya2 blk, TRPML1 agonist, PINK1 expr mod
> CC(C)(C)n1nnnc1CN1CCSCC1
    0, -9, -1.8, 2, 0.1, 1.5%
> O=C(Cn1cc(C(=O)C2CC2)c2ccccc21)Nc1ccc(F)cc1
    -7, 3, 5.6, -3, -0.3, ?

Carrying on:
Below each SMILES: D2 potentiator, CtBP-E1A blk, D2 agonist, Six1-Eya2 blk, TRPML1 agonist, PINK1 expr mod
> C=CCn1c(CSCc2ccc(F)cc2)n[nH]c1=S
    -5, nt, 6.4, -9, -1.5, 0.8%
> Cn1cc([C@@H]2C[C@H]3CN(Cc4cccc(Cl)c4)C(=O)[C@]34CCCN24)c2ccccc21
    -2, -1, -1.9, -5, 1.1, 0.4%
> O=c1cc(O)c2ccccc2n1Cc1ccccc1
    0, 4, -0.7, 2, 0.1, -0.8%
> CCN(CC)C(=O)C1=C(C)N(Cc2ccc(OC)cc2)C(=O)C(CC(=O)NCCN2CCOCC2)C1 (stereo not given)
    -3, 6, -12, -17, -0.1, 2.4%
> Cc1ccc(CNC(=O)[C@H](Cc2ccccc2)NC(=O)c2ccco2)cc1
    -1, -1, -2.4, 4, 0.7, -0.7%
> CC1=C(C(=O)Nc2ccccc2)C2(CCCCC2)C(C#N)=C(S)N1
    21, -2, 2.5, 2, 0.1, -0.4%
> Cc1ccc(S(=O)(=O)N2CCN(C(=O)c3ccccc3)C2C(C)C)cc1 (stereo not given)
    -12, 0, -0.5, 1, 0.3, -2.9%[38.3 µM]
> C/C(CC(=O)Nc1ccc2ccccc2c1)=N\NC(=O)c1ccc(O)c(O)c1
    3, -13, -1.4, -16, 0.4, 0.2%
> COc1cccc(-c2csc(NNC(=O)c3cccs3)n2)c1
    -12, nt, -11, -4, 0.5, 1.6%
> Cc1c(Cl)cccc1NC(=S)N1CCN(c2ncccn2)CC1
    -9, nt, -6.6, 11, 1.1, 2.4%
> O=C1OCC(Cn2c3ccccc3c3ccccc32)O1 (stereo not given)
    -10, 6, -2.6, 5, -1.0, -11%[38.3 µM]
> CCOC(=O)c1c(NC(=S)Nc2ccc(F)cc2)sc2c1CCC2
    0, 2, -1.9, -4, 0.8, 13%
> CC1=C(C(=O)N(C)C)CC(CC(=O)NCCN2CCOCC2)C(=O)N1Cc1ccc(C(C)(C)C)cc1 (stereo not given)
    -2, 7, -9.0, 3, -0.2, 4.4%
> CC(C)CNC(=O)[C@@H]1CSC2c3ccccc3C(=O)N21 (stereo not given in full)
    -7, 1, -4.3, 9, -1.1, 0.6%
> Cc1ccc(SCCSc2nc(C)cc(=O)[nH]2)cc1
    1, 4, -1.5, 5, 2.3, 0.1%
> Cc1ccc(C)c(N2CCN(C(=O)c3cc(S(=O)(=O)N4CCCC4)cn3C)CC2)c1
    -5, -12, -3.2, -15, 0.9&-0.5, 1.7%&1.7%
> CCCCn1nnnc1C(c1cc2ccccc2o1)N1CCN(c2ncccc2C#N)CC1 (stereo not given)
    nt, 1, nt, -2, 0.2, 2.0%
> C/C(=N\Nc1cc(N2CCOCC2)nc(C)n1)c1ccc(F)cc1
    -2, -2, 1.3, -2, 0.8, 1.8%
> O=[N+]([O-])c1cccc(S(=O)(=O)NCCc2cccs2)c1
    9, -3, 4.7, 4, -0.6, -1.8%
> Cc1ccccc1Cn1c(=O)n(C)c(=O)c2sccc21
    -28, -2, -1.9, 9, 1.2, 4.5%

In the list so far, 3 contain an aryl thioether with sulfur outside any ring.
Below each SMILES: D2 potentiator, CtBP-E1A blk, D2 agonist, Six1-Eya2 blk, TRPML1 agonist, PINK1 expr mod
> CC(C)(C)NC(=O)CSc1nnc(-c2ccccn2)n1-c1ccccc1
    -2, -1, -1.5, 0, 2.1, 3.1%
> Cc1nnc(SCC(=O)NC2CC2)s1
    -17, 0, -8.4, 3, 0.3, 1.2%
> Cc1ccc(SCCSc2nc(C)cc(=O)[nH]2)cc1
    1, 4, -1.5, 5, 2.3, 0.1%

Remaining list, next part:
Below each SMILES: D2 potentiator, CtBP-E1A blk, D2 agonist, Six1-Eya2 blk, TRPML1 agonist, PINK1 expr mod
> CCOC(=O)C1CCCN(C2CC(=O)N(c3ccc(C(C)C)cc3)C2=O)C1 (stereo not given)
    -7, nt, 1.7, 4, 0.5, -0.8%
> Cc1csc(SCC(=O)NCc2cccs2)n1
    -5, 2, -0.5, 5, 0.1, nt
> Cc1nc2scc(C)n2c(=O)c1S(=O)(=O)Nc1ccc(F)cc1
    0, 0, 8.6, 3, -0.5, 0.6%
> CN(Cc1c(C(=O)N/N=C/c2ccccc2)nnn1-c1nonc1N)c1ccccc1
    -3, -5, 0.5, -5, 1.8, 2.2%
> O=C(COC(=O)c1ccc([N+](=O)[O-])o1)NCCc1ccccc1
    0, nt, 14, 1, -0.6, 1.2%
> CN=C(Nc1ccc(Cl)cc1)c1ccc(C(F)(F)F)cc1
    -4, -14, -1.0, 3, -0.4, 4.8%
> O=C1CCCC(=O)C1C(=O)C1CCN(S(=O)(=O)c2ccccc2)CC1
    0, 2, 0.3, -1, -0.2, 1.5%

Some of the entries so far, as tab-separated lines:
smiles	D2 potentiator	CtBP-E1A blk	D2 agonist	Six1-Eya2 blk	TRPML1 agonist	PINK1 expr mod
O=C(CC1(O)C(=O)N(CCc2ccccc2)c2ccccc21)c1ccco1 (stereo not given)	-12	-2	-2.9	-2	-0.7	-0.7%
CC(O/N=C/c1ccccc1OC(F)F)C(=O)Nc1cccc(S(=O)(=O)N2CCOCC2)c1 (stereo not given)	-17	0	1.0	0	3.4	0.4%

From PubChem
